Assay outcomes: PubChem BioAssay, Fisher Drug Discovery Resource Center
NPYLR7 agonist: activates Aedes aegypti NPYLR7 receptor; HEK293T NPYLR7/Galpha15, GCaMP6s calcium fluorescence; activation, % at 10 µM; 270,000 tested, 0.15% active; in the data active means activation above about 40%;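 further: 0% = vehicle and 100% = reference agonist at the receptor; some compounds past the cut are filed as inactive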
NPYLR7 agonist max-min: recorded beside NPYLR7 agonist, whose call it bears; activation, %; measured here: Max-Min RFU normalised activation; some inactives read as strong as hits;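 span of the calcium signal over five minutes; 0% = vehicle and 100% = native peptide agonist; compound fluorescence can raise it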
Numbers without * were called inactive; & = joins results of further samples. Not all compounds are listed; count on the stated rates, not on these rows.

item	compound	NPYLR7 agonist	NPYLR7 agonist max-min
1	CCCCCOc1ccc(C(=O)N2CCC(O)(Cc3ccccc3)CC2)cc1OCCCCC	-5.3	-9.2
2	Cc1ccccc1CCNC(=O)c1sc2nc[nH]c(=O)c2c1C	-7.9	-9.1
3	COC(=O)c1ccsc1NC(=O)c1cnc(-c2ccoc2)s1	-18.4	-16.8
4	COc1ccc(C2CC(c3ccc(F)cc3)=NN2C(=O)CN2CCCCC2C)c(OC)c1 (stereo not drawn)	-3.3	11.0
5	COc1ccc(Br)cc1S(=O)(=O)NC(C)(C)C	15.4	5.9
6	CC1(Cc2ccccc2C#N)C(=O)Nc2cc(-c3ccccc3Cl)ccc21 (stereo not drawn)	2.1	1.3
7	COc1ccc(C=C(C#N)S(=O)(=O)c2cc(Br)ccc2Br)cc1O	6.1	10.8
8	CCCN(Cc1ccc(OCC)c(OCC)c1)C(=O)c1ccco1	2.3	0.8
9	Cc1csc2cc(C(=O)Nc3cccc(-c4cn5ccsc5n4)c3)cnc12	-1.2	-4.2
10	Cc1ccc(C)c(NC(=O)Cn2c(-n3nc(C)cc3C)nc(C)cc2=O)c1	2.9	-0.1
11	N#CC1(c2ccccc2)CCN(C(=O)C2CC=CCC2C(=O)NCCC2=CCCCC2)CC1 (stereo not drawn)	-8.1	-9.5
12	CC(C)(C)c1nn2cnnc2n(/N=C\c2ccc(O)cc2)c1=O	-0.5	-5.4
13	Cc1ccc(Cl)c2sc(N(CCN3CCOCC3)C(=O)c3cccs3)nc12	11.4	3.3
14	CC(C)=CCN1CCN(Cc2nc3ccccc3nc2C)CC1CCO (stereo not drawn)	-3.7	-4.5
15	Cc1ccc(CNC(=O)c2c(C)nn(C)c2Cl)s1	-3.6	-4.2
16	C=CCN(CC(=O)N1CCc2sccc2C1COc1ccc(C)cc1C)C(=O)c1ccccc1OC (stereo not drawn)	-2.4	1.8
17	O=C(Cc1c[nH]c2ccccc12)N1CCN(C(=O)Nc2nccs2)CC1	4.0	3.7
18	Cc1nc(-c2ccccc2)sc1C(=O)Nc1cccc(-c2ccc(N3CCOCC3)nn2)c1	-4.5	-5.7
19	O=C(NCc1ccc(CN2CCCC2)cc1)c1ccc2c(c1)OCO2	-0.5	-2.8
20	Cc1cc(C)nc(NN=Cc2cc(C)n(CC(F)(F)F)c2C)n1	-9.5	-15.0
21	Cn1cnnc1SCCCNC(=O)Nc1ncccn1	11.7	7.3
22	CCOc1ccc(-c2ccc(=O)n(CCNC(=O)Nc3cc(C)ccc3OC)n2)cc1	-5.1	-4.3
23	CCOc1ccccc1NC(=O)N(Cc1ccc(OS(=O)(=O)c2cccc(C(F)(F)F)c2)cc1)Cc1ccco1	-7.9	-10.2
24	Cc1nn(C)c(C)c1-c1cc(C(=O)N2C[C@@H]3[C@H](C2)[C@H]2CC[C@@H]3O2)n(C)n1	6.6	1.6
25	CCc1cc(C(=O)OC)c(NC(=S)Nc2cn(CC)nc2C(N)=O)s1	7.9	4.1
26	FC(F)(F)c1cccc(-c2nnn(Cc3ncc(-c4ccccc4)o3)n2)c1	1.2	11.7
27	CSc1nnc2[nH]c(=O)cc(C)n12	-3.7	2.0
28	Cc1nc(C)c(C(=O)NCc2cccnc2N2CCOCC2)s1	5.5	-1.5
29	CCOC(=O)c1ccccc1NC(=O)CSc1ccc(-c2ccco2)nn1	-13.4	-16.8
30	CCCCn1c(N)c(N(CCC)C(=O)c2cnoc2C)c(=O)[nH]c1=O	0.9	16.0
31	CC1CC(C)CN(P2(=O)C=C(c3ccccc3)OC(c3ccccc3)=C2)C1 (stereo not drawn)	0.4	-0.2
32	COc1ccccc1OCC(=O)NCC1CCCN(C(=O)CSC)C1 (stereo not drawn)	20.3	10.4
33	CC(CCc1ccco1)NC(=O)c1ccc(=O)n(C)c1 (stereo not drawn)	1.0	-1.7
34	CCc1nc2ccc(C(=O)NCC3CCCCC3)cn2c1N(CC)CCN(C)C	-5.5	-9.0
35	CC(C)(C)OC(=O)NNC(=O)C1CCCCC1	12.1	14.0
36	COc1cccc(-c2cc(C(=O)N3CCN(c4ccccc4F)CC3)nc3cc(-c4ccccc4)nn23)c1	-7.9&19.8	-7.6&29.5
37	COc1c(C)cc(C(=O)C2CCCN(Cc3ccc(Sc4nncn4C)o3)C2)cc1C (stereo not drawn)	1.3	-1.1
38	CN1Cc2ccccc2CC1CN(C)C1CCN(S(C)(=O)=O)CC1 (stereo not drawn)	-0.8	15.6
39	Cc1ccc2nc(C)cc(C)c2c1	-4.5	-1.0
40	Cc1cnc(NCCCN2CCNC(=O)C2)nc1N(C)C	14.2	11.9
41	O=C(CCN1C(=O)/C(=C/c2ccc(F)cc2)SC1=S)Nc1cccnc1	2.2	-13.8
42	Cc1ccc(-c2nnc(NC(=O)N(C)Cc3ccnc(C)c3)s2)cc1	17.7	6.8
43	COC1(OC)OC2=C(c3cccc4cccc2c34)C(C#N)(C#N)C1C (stereo not drawn)	7.8	14.3
44	Cc1cccc(-n2nnc3c(=O)n(C(C)c4ccccc4)cnc32)c1 (stereo not drawn)	-1.2	-7.1
45	CCN(CC#N)S(=O)(=O)c1cc(C(F)(F)F)ccc1C	2.0	0.9
46	CCOc1ccc(-n2c(-c3snnc3-c3ccccc3)n[nH]c2=S)cc1	-2.9	-6.1
47	C=CCCC(O)CN(Cc1cccc(F)c1)Cc1ccco1 (stereo not drawn)	9.8	13.0
48	CN(C)c1ccc(CNC(=O)c2ccccc2S(C)(=O)=O)cc1	-0.1	-0.3
49	O=C(CN1CCOCC1)N1CCN(c2ccccc2S(=O)(=O)C(F)(F)F)CC1	-0.1	1.2
50	CC(NC(=O)CSc1nc2ccccc2s1)c1cccc(Cl)c1 (stereo not drawn)	-1.2	-0.8
51	NS(=O)(=O)c1ccc(CCNc2cnc3cc(S(=O)(=O)N4CCCCC4)ccc3n2)cc1	-1.9	-3.6
52	Cc1nc(C(C)N(C)Cc2ccc(N(C)C)nc2)c(C)s1 (stereo not drawn)	1.6	-1.3
53	CCc1nc2n(n1)C(=O)C(C(c1cccc(F)c1)N1CCN(C)CC1)S2 (stereo not drawn)	-5.5	-9.4
54	CC(=O)N1CCC(C(=O)N2CCN(CC(OCc3ccc(C#N)cc3)c3cccc(N4CCCC4)c3)CC2)CC1 (stereo not drawn)	6.5	2.7
55	CC(C)Oc1ccc(C(=O)Nc2nnc(C3CC3)s2)cc1	-9.8	-10.6
56	N#Cc1c(NC(=O)CSC2=NCCS2)sc2c1CCCC2	13.3	9.6
57	CC(C)N(CC(=O)N(Cc1ccc(F)cc1)Cc1ccco1)C(=O)c1ccc(C(F)(F)F)cc1	-2.4	8.9
58	CCN1CCCC1CN(CC1CCN(CCOC)CC1)C(=O)c1sccc1C (stereo not drawn)	2.6	-3.5
59	COc1ccc2nc(N3CCCC3C(=O)NCCCc3ccccc3)nc(C)c2c1 (stereo not drawn)	0.2	-5.8
60	Cc1ccc(-c2cc3c(=O)n(Cc4ccccc4C)ccn3n2)cc1C	-2.3	-7.3

Further compounds
item	compound	NPYLR7 agonist	NPYLR7 agonist max-min
61	Cc1cc(NC(=O)CS(=O)(=O)c2cn(Cc3ccc(F)cc3)c3ccccc23)no1	2.0	25.9
62	Cc1cc(C)c(C#N)c(SCc2nnc(C)o2)n1	6.9	7.4
63	O=S(=O)(c1ccccc1)N1CCN(c2ccccc2F)CC1	-1.5	-2.7
64	Cc1cc(NS(=O)(=O)c2ccc(F)c(Cl)c2)n(CCC#N)n1	10.5	11.8
65	C=CCn1c(C)cc(-c2csc(NC(=O)C(NC(C)=O)C(C)C)n2)c1C (stereo not drawn)	-1.5	0.0
66	Cc1ncccc1OC1(C(=O)N2CC(N)C2)CCNCC1	2.5	2.3
67	COCc1nc(N2CCN(S(=O)(=O)c3c(C)cc(C)cc3C)CC2)c2c3c(sc2n1)CCCC3	-11.2	-6.4
68	CC(NS(=O)(=O)c1cccc(C(F)(F)F)c1)c1ccccc1 (stereo not drawn)	-21.1	-24.4
69	C=c1ccccc1=C1NN=C(c2ccc(C(=O)N3CCOC(C)C3)cc2)O1 (stereo not drawn)	5.3	8.1
70	CC(C)(C)NC(=O)N1CCC2(CC1)NC(=O)c1cc(F)c(F)cc1N2	2.8	13.9
71	O=C(O)CCC(=O)c1cccs1	0.5	-4.5
72	O=C(C1CC(=O)N(c2ccccc2)C1)N1CCN(c2ncnc3c2nnn3Cc2ccccc2)CC1 (stereo not drawn)	8.7	7.9
73	CCc1ccc(C(=O)/C=C\Nc2ccccc2NS(=O)(=O)c2ccccc2)cc1	7.1	7.1
74	CC(=O)NC1CCCN(C(=O)CSC2CCCc3ccccc32)C1 (stereo not drawn)	4.8	-0.3
75	COc1cc(C(=O)NCCNc2cc(-n3cccn3)ncn2)cc(OC)c1OC	-17.2	-17.1
76	C=CCNC(=O)C(NC(=O)c1cccs1)C1CCN(C(=O)CCc2ccccc2)CC1 (stereo not drawn)	4.0	9.3
77	CCCCCCCC(=O)NNC(=O)c1ccco1	-13.6	-21.6
78	CN(c1ccccc1)N1CC(C(=O)NCCc2cccs2)CC1=O (stereo not drawn)	-5.2	-10.3
79	Cc1ccc(S(=O)(=O)NCCn2ncccc2=O)s1	0.1	-1.2
80	COc1cccc(OCc2nc(C(=O)N3CCCCC3)cs2)c1	-20.0	-20.0
81	Cc1cccn2c(=O)c(C=C3SC(=S)N(CC(C)C)C3=O)c(NCC3CCCO3)nc12 (stereo not drawn)	8.3	6.5
82	COCCCNc1nc2nonc2nc1N(C)CCN1CCOCC1	-8.1	-7.8
83	O=S1(=O)CCC(c2nnc(SCc3cn(-c4ccccc4)nc3-c3ccccc3)o2)C1 (stereo not drawn)	5.6	11.8
84	COc1cc(NC(=O)Cn2c(C)cc(C)c(C#N)c2=O)cc(OC)c1	4.5	2.4
85	O=C(NN=Cc1ccc2c(c1)OCO2)C(O)(c1ccccc1)c1ccccc1	1.1	-1.8
86	Cc1cc(C)c(S(=O)(=O)N2CCN(c3cc(C)nc(C(C)C)n3)CC2)c(C)c1	-0.6	-1.8
87	COCCN(CC(=O)N(CCc1ccc(OC)c(OC)c1)Cc1sccc1C)S(=O)(=O)c1cccc(C(F)(F)F)c1	20.7	29.2
88	c1ccc(CCN2CCC(NCc3ccc4c(c3)OCCCO4)C2)cc1 (stereo not drawn)	-4.6	-5.1
89	CN1C(=C(C#N)C(=O)c2cc([N+](=O)[O-])ccc2Cl)N(C)c2ccccc21	-0.6	3.1
90	CN(C)CCNc1nc2c(F)cc(F)cc2s1	2.6	0.3
91	COc1cccc(-n2cc(CN(C)Cc3cc4ccccc4[nH]3)cn2)c1	6.5	3.0
92	COCCCNC(=O)c1cc(-c2ccccc2F)nc2cc(-c3ccccc3)nn12	9.6	23.3
93	C=CCn1c(SCC(=O)N(C2CCCC2)C2CCS(=O)(=O)C2)nc2ccccc21 (stereo not drawn)	9.0	9.6
94	Cc1cccn2c(=O)c3cc(C(=O)N4CCCC4)n(C)c3nc12	-1.7&2.7	-4.7&-0.1
95	CS(=O)(=O)N1CCN(c2ccc(NC(=O)COc3ccc4ccccc4c3)cc2)CC1	-5.3	-10.9
96	CCCc1nc(C(=O)NCc2nc3ccccc3c(=O)[nH]2)cs1	-0.8	-0.5
97	CC(=O)c1cccc(N2C(=O)/C(=C/c3ccc(Cl)cc3)C=C2c2ccccc2)c1	0.3	-10.6
98	COc1ccc(-c2cc(C(=O)N3CCN(C(=O)c4ccccc4OC)CC3)c(C)n2-c2ccc(C)cc2)cc1	-5.3	3.3
99	CCCCCc1ccc(C(=O)N(CC)CC(=O)c2c(C)[nH]c(C(=O)OCC)c2C)cc1	-10.7	1.0
100	O=C(c1ccc(N2CCCCC2=O)cc1)N1CCN(S(=O)(=O)c2cccc(C(F)(F)F)c2)CC1	-4.1	-5.9

The last 3 entries of the part above open the next one:
item	compound	NPYLR7 agonist	NPYLR7 agonist max-min
98	COc1ccc(-c2cc(C(=O)N3CCN(C(=O)c4ccccc4OC)CC3)c(C)n2-c2ccc(C)cc2)cc1	-5.3	3.3
99	CCCCCc1ccc(C(=O)N(CC)CC(=O)c2c(C)[nH]c(C(=O)OCC)c2C)cc1	-10.7	1.0
100	O=C(c1ccc(N2CCCCC2=O)cc1)N1CCN(S(=O)(=O)c2cccc(C(F)(F)F)c2)CC1	-4.1	-5.9
101	CCCN1CCC(C(=O)NC(c2ccccc2)c2ccsc2)CC1 (stereo not drawn)	14.4	5.8
102	Cc1ccsc1CN(Cc1ccc(F)cc1)Cc1nc(C(=O)N2CCCC2)co1	0.4	11.3
103	C=CCCC(O)CN(Cc1c(-c2ccccc2)nn(C)c1Oc1cccc(F)c1)C1CC1 (stereo not drawn)	6.3	2.2
104	Nc1ccccc1N=Cc1nc(-c2ccccc2)oc1O	2.8	4.3
105	CCCN(Cc1c(CC)nn(-c2ccc(F)cc2)c1N1CCN(C(C)C)CC1)C(=O)CCC(=O)OCC	4.1	15.2
106	CCOc1ccccc1-c1nc(C(N)=O)c2[nH]c(=O)n(-c3ccc4c(c3)OCO4)c2n1	-11.3	-12.3

Numbers 101 through 103 of the list above:
item	compound	NPYLR7 agonist	NPYLR7 agonist max-min
101	CCCN1CCC(C(=O)NC(c2ccccc2)c2ccsc2)CC1 (stereo not drawn)	14.4	5.8
102	Cc1ccsc1CN(Cc1ccc(F)cc1)Cc1nc(C(=O)N2CCCC2)co1	0.4	11.3
103	C=CCCC(O)CN(Cc1c(-c2ccccc2)nn(C)c1Oc1cccc(F)c1)C1CC1 (stereo not drawn)	6.3	2.2
